Compound activity as filed in PubChem BioAssay.
gsp ag – agonists of gsp mutant (McCune-Albright syndrome); gsp mutant cells, cAMP HTRF, 30 min; control for the full effect not named in the record; Potency, µM (series often up to 76.9 µM), without a hit: at the highest dose activation (cAMP increase), usual class: activators; AID 624287; 0.13% of 340,000 active; active = well fitted activation curve with a large enough effect; inconclusive = small, poorly fitted or top-dose-only effect, or another doubt; inactive = no such curve, though single readings can be large or run the other way; cell line not stated here;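 also: phosphodiesterase inhibitor Ro 20-1724 added with compounds to block cAMP breakdown; potency is read from the fitted curve at half-maximal effect; nearly all actives have a fitted effect of over 60% in size; about a fifth of the inactives were tested at one dose only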
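Cells stably selected in G418 were plated at 2000/well, grown 16-24 hr, then given compounds in DMSO with the PDE inhibitor […] (300 uM solution added) for 30 min at 37C; cAMP was read by HTRF.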
D2 PAM – positive allosteric modulators of human D2 dopamine receptor | P14416 | DiscoveRx D2 beta-arrestin cells, luminescence, 90 min; 100% = 57 uM dopamine signal | potentiation, % (concentration not given with the values) | 0.23% of 360,000 active | AID 624464; active = potentiation of 50% or more; inconclusive = 30% to 50%; inactive = 30% or less;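 also: compound concentration not given in the record; tested on top of an EC20 dose of dopamine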
Target sequence (P14416 whole entry, looked up): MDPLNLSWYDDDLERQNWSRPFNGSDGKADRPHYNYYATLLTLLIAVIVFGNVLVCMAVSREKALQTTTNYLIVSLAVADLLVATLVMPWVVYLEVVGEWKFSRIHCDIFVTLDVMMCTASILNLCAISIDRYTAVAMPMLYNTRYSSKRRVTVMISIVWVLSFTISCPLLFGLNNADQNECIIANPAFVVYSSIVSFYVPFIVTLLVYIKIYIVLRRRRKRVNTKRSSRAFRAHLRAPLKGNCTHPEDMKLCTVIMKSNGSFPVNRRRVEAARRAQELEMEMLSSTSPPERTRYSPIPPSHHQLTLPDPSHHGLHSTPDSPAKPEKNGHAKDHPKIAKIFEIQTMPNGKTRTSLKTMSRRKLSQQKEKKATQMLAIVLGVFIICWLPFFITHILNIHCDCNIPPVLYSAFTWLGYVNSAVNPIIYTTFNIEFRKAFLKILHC
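PathHunter D2 cells, attached overnight at 37 deg C, received compound in DMSO plus dopamine at EC20 (50 nM final) for 90 min at 37 deg C. Beta-arrestin recruitment was read as luminescence after 1 h with detection reagent at ambient temperature.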
D2 ag – activates the human D2 dopamine receptor; P14416; activation, % (test concentration not listed); DiscoveRx PathHunter D2 beta-arrestin, luminescence, 90 min; 100% = 57 uM dopamine signal; 0.084% of 360,000 active; in the data active = activation above about 40%; inconclusive = about 15% to 40%; inactive = below about 15%; also: compound concentration not given in the record; the text of the record calls up to 30% inactive
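Agonist mode: compounds alone added to overnight-plated D2 PathHunter cells for 90 min at 37 C, with 57 uM final dopamine (EC100) defining full response. Beta-arrestin recruitment detected by chemiluminescent reagent, read after 1 h at ambient temperature.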
gsp antag – antagonizes gsp, the McCune-Albright syndrome mutation; 0.4% of 340,000 active; Potency, µM (titrated, usually from 76.9 µM), inactives show top-dose activity change, negative = inhibition, usual class: inhibitors; gsp-mutant cells, cAMP HTRF, 30 min; control for the full effect not named in the record; active = falling curve of any shape with a large fitted effect; inconclusive = falling curve, mostly with a smaller effect; inactive = flat or rising curve; cell line not stated here;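 also: intracellular cAMP measured with PDE inhibitor Ro 20-1724 present during compound exposure; potency is read from the fitted curve at half-maximal effect; % is scaled to controls: 0 for no effect and ±100 for the full control effect; nearly all actives have a fitted effect of over 65% in size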
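G418-selected cells were plated in DMEM/10% FBS for 16-24 h at 37C, then treated with compounds plus the PDE inhibitor […] (300 uM solution added) for 30 min at 37C. Intracellular cAMP was measured by HTRF after 30 min lysis at room temperature.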
CtBP-E1A inh – CtBP/E1A binding inhibition | AlphaScreen GST-E1A/His-CtBP binding, 1536-well; stronger effect = lower value; control for the full effect not named in the record | activity change, % (no concentration beside the values) | 0.49% of 340,000 active; in the data active means activity change below about -65%; inconclusive means about -30% to -65%; inactive means above about -30%; also: % is scaled to controls: 0 for no effect and ±100 for the full control effect; compound concentration not given in the record
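Protein mix (5X: 125 nM each GST-E1A, His-CtBP) was incubated with pinned compound 2 h at 37 deg C in dark, in 50 mM Tris pH 8.0 buffer with 300 mM NaCl. Glutathione donor and nickel acceptor beads followed; AlphaScreen signal read after 1 h.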
Six1-Eya2 inh – blocks human Six1 binding to Eya2 | Q15475+O00167 | AlphaScreen GST-Six1/His-Eya2 binding, biochemical; stronger effect = lower value; control for the full effect not named in the record | activity change, % (concentration not given with the values) | 0.56% of 360,000 active; in the data active = activity change below about -65%; inconclusive = about -30% to -65%; inactive = above about -30%; also: % is scaled to controls: 0 for no effect and ±100 for the full control effect
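Compounds are tested against tagged Six1 and Eya2 proteins bridged by glutathione donor and nickel acceptor beads; after a one-hour incubation at 37 °C without light, AlphaScreen emission is recorded.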
Numbers without * were called inactive; ? = inconclusive; / = not tested or not shown; [ ] = dose if it differs, or a comment.

SMILES	gsp ag	D2 PAM	D2 ag	gsp antag	CtBP-E1A inh	Six1-Eya2 inh
CCOC(=O)C1SC2(C(F)(F)F)CC1(O)c1c(C)cc(C)nc1O2 (centres undefined)	8%	1	0.5	-27%	6	3
COc1cccc(N2CCN(Cc3ccc(Cl)cc3)CC2)c1	2%	-23	-1.0	-1%	-13	-19
CCC(C)n1c(O)c(/C=N/Nc2ccccc2)c(=O)[nH]c1=S (centres undefined)	-40%	6	-1.1	-7%	-1	13
Cn1cccc1/C=C1\C(=O)NC(=O)N(Cc2ccccc2)C1=O	4%[15.4 µM]	4	6.8	-4%	-1	-10
Cc1nc2ccccc2c(=O)n1-c1ccccc1C(F)(F)F	-14%	2	2.3	1%	-3	3
COc1ccc(CCNCc2ccc(F)cc2)cc1OC	-29%	-19	-2.4	-2%	-1	0
N[C@@H](Cc1ccccc1)C(=O)N1C[C@H]2C[C@@H](C1)c1cccc(=O)n1C2	/	-26	-5.3	-6%	-1	3
O=C(NCCCn1ccnc1)C(Cl)(Cl)Cl	-4%	-9	-4.0	9%	/	1
C/C(=N\N1CCCCCC1)c1c(O)n(-c2ccccc2C)c(=O)[nH]c1=O	14%	-2	2.7	-3%	/	6
O=c1[nH]c2ccccc2n1C1CCN(C(CCc2ccccc2)c2nnnn2C2CCCC2)CC1 (centres undefined)	/	22	/	/	-1	-20
CCOC(=O)c1cncn1[C@@H](C)c1ccccc1	/	8	-3.1	-3%	4	-6
c1ccc(CCc2ccc3n2Cc2cnnn2-c2ccccc2-3)cc1	/	2	-1.2	2%	-9	?
NP(=O)(OCC(F)(F)F)Oc1cccc2ccccc12 (centres undefined)	14%	-7	-2.3	11%	/	0
O=c1c2ccccc2nc(-c2ccccc2)n1-c1ccc(O)cc1	?	-8	3.1	?	7	3
CC(C)C12CN3CC(C(C)C)(CN(C1)C3c1cccnc1)C2=O (centres undefined)	?	1	-9.8	-3%	3	-1
CCOC(=O)CNC(=O)N1Cc2cc(-c3cccc(F)c3)ccc2-n2nncc2C1	/	0	0.1	/	3	7
COC(=O)C1=C(c2ccc(OC)c(OC)c2)C[C@@H]2CC[C@H]1N2C(=O)NCCCOC(C)C	/	-10	-3.0	5%	6	2
O=c1cccc2n1CC1CC2CN(c2nc(N3CCCCC3)nc(N3CCCCC3)n2)C1 (centres undefined)	14%	-1	-2.4	-11%	4	4
O=C1N=c2ccccc2=C/C1=C\c1c(O)[nH]c(=S)[nH]c1=O	14%	-11	-4.3	6%	-6	0
O=C(Nc1cccc(C(F)(F)F)c1)c1cccn(Cc2ccc3c(c2)OC(F)(F)O3)c1=O	4%	-7	0.4	-15%	13	4
CN1C2CCC1CC(OC(=O)c1cccc(O)c1)C2 (centres undefined)	/	-10	-4.7	7%	4	5
C=CCn1c(O)c(C(C)=NCc2cc(OC)cc(OC)c2)c(=O)[nH]c1=O	-18%	14	-0.6	4%	0	-2
COc1cccc(NC2=NCCCS2)c1	5%[15.4 µM]	-9	3.0	2%	-2	1
CN1C[C@@H]2C[C@@H](c3cccn3-c3ccccn3)N3CCC[C@@]23C1=O	?	3	1.6	3%	10	1
COc1ccc2c(c1)C(NC(C)=O)CCc1cc(OC)c(OC)c(OC)c1-2 (centres undefined)	20%	-9	-1.2	8%	0	10
CC(C)CNC(=O)c1c(N)n(Cc2ccc3c(c2)OCO3)c2nc3ccccc3nc12	4%	24	-3.4	4%	54	43
Fc1ccc(CNCCc2c[nH]c3ccccc23)cc1	-73%[inhibitor]	-22	3.9	-9%	-15	-17
COC(=O)C1=C(C)N(C)C(=O)NC1c1cc(Cl)c(O)c(OC)c1 (centres undefined)	5%	4	-0.2	2%	5	-2
COc1ccc(-c2cc(=O)oc3c(C)c(OC(C)C(=O)N4C[C@H]5C[C@@H](C4)c4cccc(=O)n4C5)ccc23)cc1 (some centres undefined)	/	-36	-5.9	-18%	-16	10
COC(=O)C1=C(c2ccc(OC)c(OC)c2)C[C@@H]2CC[C@H]1N2C(=O)N1CCC(C)CC1	/	-24	-6.5	-4%	3	0

10 of these compounds in a different format:
Under each structure: gsp ag	D2 PAM	D2 ag	gsp antag	CtBP-E1A inh	Six1-Eya2 inh
CCOC(=O)C1SC2(C(F)(F)F)CC1(O)c1c(C)cc(C)nc1O2 (centres undefined)
  8%	1	0.5	-27%	6	3
COc1cccc(N2CCN(Cc3ccc(Cl)cc3)CC2)c1
  2%	-23	-1.0	-1%	-13	-19
CCC(C)n1c(O)c(/C=N/Nc2ccccc2)c(=O)[nH]c1=S (centres undefined)
  -40%	6	-1.1	-7%	-1	13
Cn1cccc1/C=C1\C(=O)NC(=O)N(Cc2ccccc2)C1=O
  4%[15.4 µM]	4	6.8	-4%	-1	-10
Cc1nc2ccccc2c(=O)n1-c1ccccc1C(F)(F)F
  -14%	2	2.3	1%	-3	3
COc1ccc(CCNCc2ccc(F)cc2)cc1OC
  -29%	-19	-2.4	-2%	-1	0
N[C@@H](Cc1ccccc1)C(=O)N1C[C@H]2C[C@@H](C1)c1cccc(=O)n1C2
  /	-26	-5.3	-6%	-1	3
O=C(NCCCn1ccnc1)C(Cl)(Cl)Cl
  -4%	-9	-4.0	9%	/	1
C/C(=N\N1CCCCCC1)c1c(O)n(-c2ccccc2C)c(=O)[nH]c1=O
  14%	-2	2.7	-3%	/	6
O=c1[nH]c2ccccc2n1C1CCN(C(CCc2ccccc2)c2nnnn2C2CCCC2)CC1 (centres undefined)
  /	22	/	/	-1	-20

(next part)
SMILES	gsp ag	D2 PAM	D2 ag	gsp antag	CtBP-E1A inh	Six1-Eya2 inh
Cn1c(=O)cc(OCCCC(=O)N2CCC3(CC2)OCCO3)c2ccccc21	23%	4	-0.8	14%	5	5
O=S(=O)(Nc1ccc(-c2nc3ccccc3o2)cc1)c1ccccc1	-25%	4	-0.2	?	-16	-6
CCN(CC)C(=O)c1ccc(NC(=O)COc2ccc(-c3nn(C)c(=O)c4ccccc34)cc2)cc1	-1%[15.4 µM]	13	5.3	?	-2	-7
O=C1C=CC(=O)C=C1	/	4	-6.3	-3%	-2	-8
Cc1ccc(S(=O)(=O)NN=Cc2cc(Cl)ccc2O)cc1	?	-4	-3.7	-10%	-7	-3
COC(=O)C1=C(c2ccc(S(C)(=O)=O)cc2)C[C@@H]2CC[C@H]1N2C(=O)NCC1CC1	/	-2	-0.6	6%	6	5
COP(=O)(/C=C(\Cl)c1ccccc1)/C=C(\Cl)c1ccccc1	2%	-3	-5.4	-6%	/	-8
O=C(Cc1ccccc1)OCC(=O)c1ccc(F)cc1	-1%[15.4 µM]	-13	-3.6	0%	17	0
CN1C(=O)C2C[C@@]3(Br)c4ccccc4N(OOSc4ccccc4)[C@H]3N2C(=O)[C@@H]1Cc1ccccc1 (some centres undefined)	/	-41	1.8	-27%	-22	-6
Clc1ccccc1CN1CCN(c2ccccc2Cl)CC1	-27%	-19	2.6	1%	17	1
CCOc1ccc2nc(N3CCC(C(=O)N4CCC5(CC4)OCCO5)CC3)sc2c1	-34%	-3	-0.6	?	0	-6
O=C1NC(=S)NC(=O)C1C1CCCCC1	-7%	-10	-2.7	5%	-9	0
COC(=O)C1=C(c2ccc(F)cc2OCc2ccccc2)C[C@@H]2CC[C@H]1N2C(=O)NC1CC1	-69%[inhibitor]	-14	-0.4	-2%	-22	6
CCOP(=O)(OCC)C(NC(=O)c1cccc([N+](=O)[O-])c1)C(Cl)(Cl)Cl (centres undefined)	1%[15.4 µM]	-2	-4.8	7%	6	8
COC(=O)C1=C(c2cccc(C#N)c2)C[C@@H]2CC[C@H]1N2C(=O)NC1CCCCC1	-23%	-6	-2.5	3%	8	7
COc1cc2c(cc1OC)C13CCN4CC5=CCOC6CC(=O)N2C1C6C5CC43 (centres undefined) (tested in a mixture with another compound)	-22%	1	0.0	8%	0	-3
CC(C)C1C(C#N)=C(N)Oc2c1c(=O)oc1ccccc21 (centres undefined)	-61%	-8	-0.8	/	10	-5
Oc1ccc(CCN2CCCCC2)cc1	-2%	-11	-3.2	0%	4	0
CNC(=O)Oc1ccc(C(=O)N2c3ccccc3NC(=O)C2C)cc1 (centres undefined)	-29%	-7	-4.2	0%	/	5
O=C(OC1CC2CCC(N2)C1C(=O)O)c1ccccc1 (centres undefined)	/	-9	2.0	-2%	4	2
COc1cc([C@H]2OC[C@H]3[C@@H]2CO[C@@H]3c2cc(OC)c(O[C@@H]3O[C@H](CO)[C@@H](O)[C@H](O)[C@H]3O)c(OC)c2)cc(OC)c1O[C@H]1O[C@@H](CO)[C@H](O)[C@@H](O)[C@@H]1O	/	-29	-1.1	1%	5	7
O=C(NN=Cc1ccc(N(CCCl)CCCl)cc1Cl)c1cccnc1	7%	-10	-0.5	-9%	10	-5
Nc1ccccc1C(=O)c1ccccc1	17%	-6	-3.5	4%	21	3
COc1ccc(C(=O)C2CCCN(CCO)C2)c(C)c1 (centres undefined)	?	-8	-4.6	10%	-4	3
C=Cn1ccnc1P(=S)(c1nccn1C=C)c1nccn1C=C	-38%[inhibitor]	-8	-5.2	6%	-91*	?
COc1ccccc1-n1c(O)c(C=NCc2ccc3c(c2)OCO3)c(=O)[nH]c1=O	-165%[inhibitor]	-11	1.0	2%	4	1
CCOc1cc(C=O)ccc1O	/	-7	-3.3	2%	2	1
CCCOP(=O)(O)c1c([N+](=O)[O-])cc(C(F)(F)F)cc1[N+](=O)[O-] (tested in a mixture with another compound)	-17%	-24	-1.7	3%	10	2
NNC(=O)c1nc[nH]c1C(=O)Nc1ccc(Cl)cc1C(=O)c1ccccc1	3%	-14	-5.9	9%	-7	-3
O=c1[nH]c(O)c(C=NCCc2ccccc2)c(=O)[nH]1	-16%	-6	-4.3	12%	-2	0
CCCCn1c(O)c(C(=O)/C=C/c2c[nH]c3ccccc23)c(=O)[nH]c1=O	-2%[15.4 µM]	0	-2.1	-1%	6	4
CN(C)C1C(=O)C(C(N)=O)=C(O)C2(O)C(=O)C3=C(O)c4c(O)cccc4C(C)(O)C3C(O)C12 (centres undefined)	/	3	-2.6	-4%	-68*	?
Cc1ccc(-c2nn(Cc3ccccc3)cc2C=O)cc1C	?	12	-4.7	4%	0	4
CCOC(=O)C(NC(=O)CCl)(Nc1ccc(C(O)(C(=O)OCC)C(F)(F)F)cc1)C(F)(F)F (centres undefined)	13%	-8	-2.9	2%	14	9

Not all compounds are listed; count on the stated rates, not on these rows.
